# Tg IFNy HTS: T. gondii growth inhibition with IFN-gamma, primary screen, cell-based | activity change, negative = inhibition, %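 (about 20 µM by stock and volumes)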 | 69,000 tested, 3.8% active | Toxoplasma gondii growth in IFN-gamma-treated host cells; stronger effect = lower value; reference of the scale not given here | AID 1259416, 2018;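 active means below -70%; inconclusive means fit judged invalid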;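 further: host cells are HeLa cells infected with Toxoplasma gondii; parasite growth read as luciferase light; one replicate is shown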
# Active calls of the source: *; i = inactive; ? = inconclusive; & = joins results of further samples. The list is partial. The share of hits here may be higher or lower than overall.
molecule	Tg IFNy HTS
CCOC(=O)Cn1cc(Cl)c(=O)c(Cl)c1	19
Cc1nnc(SCCC(=O)Nc2ccc(Cl)cc2)o1	23
CC(C)N1CCc2ncn(C(C)C)c2C1C(=O)N(C)Cc1ccccn1 (stereo not given)	5
Cc1cccc(S(=O)(=O)N[C@@H]2CC[C@H](CCNC(=O)Nc3cc(F)ccc3F)O[C@@H]2CO)c1	-48
COc1ccc(-c2nc(N3CCN(c4cc(Cl)ccc4C)CC3)c3ccccc3n2)cc1	-28
CCCCS(=O)(=O)N1CCC2(CC2C(=O)N(C)Cc2ccccn2)C1 (stereo not given)	114
Cc1[nH]c2ccccc2c1C(c1ccc2c(c1)OCO2)c1c(C)[nH]c2ccccc12	-24
COc1ccc2c(=O)c(OC)c(-c3ccccc3)oc2c1	-30
CCN1c2cc(C)ccc2-n2cccc2C12CCN(S(=O)(=O)c1ccc3c(c1)oc(=O)n3C)CC2	61
CCN1C(=O)CCc2cc(NC(=O)c3ccc(C)cc3)ccc21	-16
Cc1onc(-c2ccccc2)c1C(=O)N1C2CCC1CC(O)(c1cccnc1F)C2 (stereo not given)	1
CC(C)CN1C[C@@H]2CCN(c3ncc(F)cn3)CC[C@H]2S1(=O)=O	40
COc1cccc(CN2CCc3c(c(C(=O)NCCCN4CCOCC4)nn3C)C2)c1	8
c1ccc(-c2csc(-c3cccnc3)n2)cc1	75
COc1ccc2c(c1)NC1(CCN(C(=O)Nc3ccccc3Br)CC1)c1cccn1-2	76
Cc1ccc(NC(=O)N2CCC(c3nc(C(=O)N4CCCC4)c(C)o3)CC2)cc1Cl	-37
CC(C)NC(=O)CN1CCN(Cc2nnc(CC3CCNCC3)n2C)CC1	-26
C[C@@H]1CN([C@@H](C)CO)C(=O)c2cc(NC(=O)CCCN(C)C)ccc2O[C@@H]1CN(C)Cc1ccc(Cl)c(Cl)c1	-33
c1ccc(-c2cc(-c3ccccc3)c(N3CCCC3)nn2)cc1	-39
O=c1c2c3c(sc2ncn1CCc1cnn(-c2ccccc2)c1)CNCC3	6
CCCC(C)C(=O)Nc1ccc(C)c(C)c1 (stereo not given)	17
COc1ccc2cccc(N3CCN(CCNC(=O)c4ccc(F)cc4)CC3)c2c1	-30&5
COc1ccc2c(c1)NC1(CCN(C(=O)Nc3ccc(F)cc3)CC1)c1cccn1-2	355
CCO[C@H]1CO[C@@]2(CCCN(S(=O)(=O)N(C)C)C2)C1	3
Cc1ccc2[nH]c(CN3CCN(c4ncc(C)c(N)n4)CC3)c(C)c2c1	5
CCOC(=O)CSC1=Nc2ccccc2C2=NC(CC(=O)NCc3cccs3)C(=O)N12 (stereo not given)	22
CC(CC(=O)O)S(=O)(=O)c1ccc(Cl)cc1 (stereo not given)	12
CC1=NOC(C(=O)N2CCC(c3cc(Cc4ccccc4)[nH]n3)CC2)C1 (stereo not given)	1
O=C(c1ccsc1)N1CCCn2nnc(CO)c2C1	36
COCC1CN(Cc2c(C)noc2C)Cc2cncn2C1 (stereo not given)	-6
O=C(Cc1nc(-c2ccncc2)n[nH]1)N1CCCC1c1ccccn1 (stereo not given)	-2
COCCN(Cc1ccsc1)C(=O)COc1ccccc1	1
CN1CCC2(CC1)CN(C(=O)CN1CCc3ccccc3C1)CCCN2C	-2
COC[C@@H]1CCC[C@]12CN(C(=O)c1cccs1)CCO2	-10
CCCS(=O)(=O)N1CC2CCC1C2Oc1ccccn1 (stereo not given)	13
C[C@@H]1CN([C@@H](C)CO)C(=O)c2cc(NS(=O)(=O)c3cn(C)cn3)ccc2O[C@@H]1CN(C)S(=O)(=O)c1ccc(F)cc1	-6
CCOC(=O)c1ccc(NC(=O)C2=C(C)C(=O)OC23CCN(C(C)C)CC3)cc1	12
C[C@H]1C[C@@H]2CN(C(=O)c3cc4cc(Cl)ccc4o3)CC[C@@H]2O1	40
Cn1cc(C[C@H]2[C@H](O)CCN2C(=O)Cc2ccccc2)cn1	253
CCOc1cc(S(=O)(=O)n2cnc(C)c2)ccc1F	-18
CC(O)Cn1cnc2c(F)cccc2c1=O (stereo not given)	2
Cn1cc(N2CCC3(CCN(C(=O)c4cnccn4)C3)C2=O)cn1 (stereo not given)	3
COC(=O)C[C@H]1CC[C@@H]2[C@@H](COc3ccc(NC(=O)Nc4c(C)noc4C)cc3C(=O)N2C)O1	-1
O=S(=O)(NCc1ccccc1)N1CCCC1C(F)(F)F (stereo not given)	5
O=C(Cn1nc(C(F)(F)F)c2c1CCCC2)N1CCCC1c1cccc(F)c1 (stereo not given)	?
CC(C)NC(=O)NCC[C@@H]1CC[C@H](NS(=O)(=O)c2ccc(Oc3ccccc3)cc2)[C@H](CO)O1	-48
c1ccc(C2C3=C(CCCC3)Oc3ccccc32)cc1 (stereo not given)	0
CC(C)CN1Cc2cccc(C(=O)N[C@H](C)Cn3nnc4ccccc43)c2C1=O	-34

# A draw from above in order of heavy-atom count, descending:
molecule	Tg IFNy HTS
COC(=O)C[C@H]1CC[C@@H]2[C@@H](COc3ccc(NC(=O)Nc4c(C)noc4C)cc3C(=O)N2C)O1	-1
CC(C)CN1Cc2cccc(C(=O)N[C@H](C)Cn3nnc4ccccc43)c2C1=O	-34
O=C(Cn1nc(C(F)(F)F)c2c1CCCC2)N1CCCC1c1cccc(F)c1 (stereo not given)	?
c1ccc(C2C3=C(CCCC3)Oc3ccccc32)cc1 (stereo not given)	0
CC(O)Cn1cnc2c(F)cccc2c1=O (stereo not given)	2

# In the list so far, these have an NH in an aromatic ring.
molecule	Tg IFNy HTS
Cc1[nH]c2ccccc2c1C(c1ccc2c(c1)OCO2)c1c(C)[nH]c2ccccc12	-24
Cc1ccc2[nH]c(CN3CCN(c4ncc(C)c(N)n4)CC3)c(C)c2c1	5
CC1=NOC(C(=O)N2CCC(c3cc(Cc4ccccc4)[nH]n3)CC2)C1 (stereo not given)	1
O=C(Cc1nc(-c2ccncc2)n[nH]1)N1CCCC1c1ccccn1 (stereo not given)	-2

# The list goes on:
molecule	Tg IFNy HTS
O=C(CN1C(=O)CCc2cc(S(=O)(=O)N3CCCC3)ccc21)NC1CCCCC1	-5
Cc1oc(-c2ccccc2)nc1CNS(=O)(=O)c1ccc(F)cc1	-7
CCn1cc(CN(C)C(=O)Cc2nnc(N)s2)c(C)n1	-2
COc1cccc(CNC(=O)CN2C(=O)CCc3cc(Br)ccc32)c1	13
COc1ccccc1-n1c(SCC(=O)Nc2nc(C)c(C)s2)nc2cccnc21	-10
O=C(C[C@H]1CC[C@@H](NS(=O)(=O)c2ccccc2F)[C@@H](CO)O1)NCCCN1CCOCC1	17
CCCS(=O)(=O)N1C[C@H]2C[C@H](C(=O)Nc3cccnc3)[C@@H](C1)O2	7
Cc1csc(-c2ccn(CC(=O)Nc3ccn(Cc4ccccc4)n3)n2)c1	-43
CS(=O)(=O)NCCC1CN(Cc2ccnc3ccccc23)CCO1 (stereo not given)	1
O=C(c1cnn2ccccc12)N1CC[C@@H](c2ccc3c(c2)OCO3)[C@H](O)C1	18
O=S(=O)(c1ccc(F)cc1)N1CCCCN2[C@H](CO)[C@@H](c3ccc(-c4cncnc4)cc3)[C@H]2C1	17
CNc1nc(N2CC[C@@H](c3ccc4ccccc4c3)[C@H](O)C2)ncc1F	2
Cc1cc(NC(=O)NCc2cccnc2)no1	69
Cc1nnnn1-c1ccc(CC(=O)NCc2cccc(OC(C)C)c2)cc1	53
COCCn1c(C)nc2nnc3ccc(C(=O)C4CC4)cc3c21	18
COC(=O)c1sccc1-n1cc(C#N)c(=O)n(C)c1=O	84
NC[C@H]1O[C@H](O[C@H]2[C@H](O)[C@@H](O[C@H]3O[C@H](CO)[C@@H](O)[C@H](N)[C@H]3O)[C@H](N)C[C@@H]2N)[C@H](N)[C@@H](O)[C@@H]1O	-28
Cc1ccc2cc(NC(=O)c3cc(C)n(C)n3)ccc2n1	91
CN(C)S(=O)(=O)CCNC(=O)C(=O)N1CCc2ccccc21	-1
COc1ccccc1-c1nc2cnccn2c1NCCC(=O)N1CCC2(CC1)OCCO2	-28
CCCCOc1ccc(-c2cc3c(=O)n(Cc4nc(-c5ccccc5)oc4C)ccn3n2)cc1	-46
Cc1ccc(C2(O)CCN(C(=O)Cc3ccccc3C)CC2)nc1	-2
CC(C)OC(=O)C(C(=O)OC(C)C)=C1SC=CS1	4&7
S=C(Nc1ccc2[nH]ccc2c1)NC1CC2C=CC1C2 (stereo not given)	174
C[C@H](CO)N1C[C@H](C)[C@H](CN(C)C(=O)Nc2cccc(Oc3ccccn3)c2)OCc2cnnn2CCCC1=O	128
Cc1noc(C)c1S(=O)(=O)N1CCOCC1	-24
CN(C)CCN1C[C@H]2OCCN(Cc3cnn(C)c3)[C@H]2C1	6
Cc1occc1C(=O)N1CCn2cc(Cn3cncn3)nc2C1	59
O=C(CCO)N1CCCC2(COCCN(c3cnccn3)C2)C1 (stereo not given)	3
CN(Cc1cc2n(n1)CCCNC2)Cc1noc(-c2ccccc2)n1	9
CC(C)Nc1cc(-c2cc(Cl)c3c(c2)CC(CN)O3)ncn1 (stereo not given)	2
C/C=C/c1ccc([C@H]2[C@@H](CN(C)C(C)=O)N(C(=O)NC(C)C)[C@H]2CO)cc1	-23

# Remaining list, next part.
smiles | Tg IFNy HTS
Cn1cnc(CCNC(=O)C[C@@H]2CC[C@H]3[C@@H](COC[C@@H](O)CN3C(=O)Nc3ccc(C(F)(F)F)cc3)O2)c1 | 3
COc1cccc(-n2cc(CN(C)Cc3ccc(O)c(Cl)c3)cn2)c1 | 8
CCOC(=O)CSc1nnc(CSc2nc(C)cc(C)n2)n1-c1cccc(Cl)c1 | -14
CC(C)N(C[C@@H]1[C@@H](c2ccccc2)[C@H](CO)N1S(C)(=O)=O)C(=O)CN(C)C | -9
Nc1c2cnc(N3CCCC3)nc2nc(=O)n1-c1ccc(Cl)cc1 | -12
CN(C)c1ccc(NC(=O)c2c(O)c3ccccc3[nH]c2=O)cc1 | i
O=C(C[C@@H]1CC[C@@H]2[C@H](COC[C@@H](O)CN2S(=O)(=O)c2cccc(Cl)c2)O1)N1CCOCC1 | 1
O=C(O)c1ccccc1Nc1nc(N2CCCC2)nc(N2CCCC2)n1 | -29
c1cc(Cn2ccnc2-c2cnc[nH]2)c2cc[nH]c2c1 | 51
O=C(Cc1ccc(Cl)cc1)N1CC2(CCN(Cc3ccc(C(F)(F)F)cc3)CC2)C1 | -80*
CC(=O)NCC(=O)N1CCC2O[C@H](COCc3ccccn3)CCC21 (stereo not given in full) | -46
CCN1CCN(C(=O)Cn2ncc3c(N4CCN(c5ccccc5)CC4)ncnc32)CC1 | 28
Nc1c(C(=O)Nc2nccs2)sc2nc3c(c(-c4ccco4)c12)CCC3 | 329
C[C@H](CO)N1C[C@H](C)[C@H](CN(C)S(=O)(=O)c2cn(C)cn2)Oc2ccc(NC(=O)C3CC3)cc2CC1=O | 30
COc1ccc2c3c(n(C)c2c1)[C@@H](CO)N(C(=O)NC(C)C)CC31CCN(Cc2nccs2)CC1 | -10
COCCC(=O)c1nc2c(o1)CN(Cc1ccccc1)C2 | 1
Cc1cc(C)c(NC(=O)CSc2nnnn2-c2cccnc2)c(C)c1 | 30
COc1ccc(NC(=O)N2CCC(Cc3cccc(C(N)=O)c3)C2)c(C)c1 (stereo not given) | 0
Fc1cccc(-n2cc(CN3CCC(OCc4cccnc4)CC3)cn2)c1 | 6
Cc1noc(C)c1CN1CCc2cc(C(=O)N(C)C)c(NCC(C)C)nc2CC1 | 15
Cc1cccc(CN2CCC3(CC2)C(=O)NC3c2ccccc2)n1 (stereo not given) | -54
N[C@@H]1CC[C@@H](NS(=O)(=O)c2cc(Cl)c(Cl)s2)C1 | -11
CCc1[nH]c2c(CNC(=O)CCN(C)S(C)(=O)=O)cc(F)cc2c1C | -2
C[C@@H](O)C#Cc1ccc([C@H]2[C@@H](CO)N3CCCCN(C(=O)c4ccc5c(c4)OCO5)C[C@H]23)cc1 | -39
CCOC(=O)N1CCC2(CC1)OC(=O)C(C)=C2C(=O)NCCN1CCCCCC1 | 56
CN1CC(=O)N(c2ccccc2)CC12CCN(Cc1nccs1)C2 (stereo not given) | 77
CC(=O)Nc1cccc(-c2cc3c(cc2C(N)=O)OCO3)c1 | 2
COc1ccc(NC(=O)CN2C(=O)CCc3cc(S(=O)(=O)N4CCCCC4)ccc32)cc1OC | 8
Cc1cccc(-c2nc(Cn3c(=O)c4c(C(=O)N5CCCCC5)cc(C)nc4n(C)c3=O)c(C)o2)c1 | 2
Cc1ccccc1NC(=O)CNC(=O)CCCn1cnc2ccccc2c1=O | -1
Cn1ncc2cc(NC(=O)c3cccc(CN4CC=CCC4)c3)ccc21 | -2
COC(=O)c1c(NCc2c(C)noc2C)c2cccc(Cl)c2[nH]c1=O | 7
Cc1cc(=O)c2c(Cl)ccc(C)c2[nH]1 | -31
Cc1cccc(Nc2nc(-c3nnc(-c4ccccc4)o3)nc3ccccc23)c1C | -7
Cc1nc(NCc2ccco2)c(C#N)c2c1COC(C)(C)C2 | -64
Cc1ccoc1C(=O)N1C[C@H]2CCCO[C@H]2[C@@H](Nc2ccccn2)C1 | -8
CN(Cc1n[nH]c2c1CCC2)c1cc(NC2CC2)nc(N)n1 | -27
Cn1c(SCc2ccccc2)nnc1-c1ccc(C(C)(C)C)cc1 | 1
COc1ccc(Cc2nnc(NC(=O)NC3CCNCC3)s2)cc1OC | 10
COc1ccc(CCNC(=O)c2ccc(Cl)cc2)cc1OC | 9
Cc1ncccc1NC(=O)c1ccc2nnc(C3CCN(C(C)C)C3)n2c1 (stereo not given) | 23
O=C(NCC[C@H]1CC[C@@H](NC(=O)c2ccncc2)[C@H](CO)O1)Nc1ccc(Cl)cc1 | 57
Cc1cccnc1[C@H](C)NC(=O)c1c(C)nc2ncccn12 | -7
Cc1cccn2c(CNC3CCC4(CCNCC4)CC3)cnc12 | 51
O=C(c1nc(Nc2ccc(F)cc2)c2ccccc2n1)N1CCCCCC1 | -40
O=c1oc2c(CN3CCN(CCO)CC3)c(O)ccc2cc1-c1ccccn1 | 34

# Screens: PubChem BioAssay, Broad Institute
